NPYLR7 ag – activates Aedes aegypti NPYLR7 receptor; HEK293T NPYLR7/Galpha15, GCaMP6s calcium fluorescence; activation, % at 10 µM; 270,000 compounds, 0.15% hits; in the data active = activation above about 40%;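 note: 0% = vehicle and 100% = reference agonist at the receptor; some compounds past the cut are filed as inactive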
NPYLR7 ag max-min – second read-out of NPYLR7 ag, no call of its own (marks repeat the call); activation, %; measured here: Max-Min RFU normalised activation; some inactives read as strong as hits;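 span of the calcium signal over five minutes; 0% = vehicle and 100% = native peptide agonist; compound fluorescence can raise it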
The depositor's hits bear a star; & = joins results of further samples.

SMILES	NPYLR7 ag	NPYLR7 ag max-min
Cc1ccccc1CO[C@]1(C(=O)NCCN2CCOCC2)CC(OCc2cccc(Cl)c2)[C@@H]2OC(C)(C)O[C@@H]2C1 (stereo partly drawn)	26	29
COc1ccccc1NC(=O)CSc1nc(=O)n(CCN(C)C)c2c1CCCC2	-2	3
O=C(NCC1CCC(CNC(=O)c2ccon2)CC1)c1ccon1 (stereo not drawn)	1	-2
O=C(Cn1c(NCCCO)nc2ccccc21)c1cccc2ccccc12	0	2
COc1ccc(Oc2cc(C(F)(F)F)nc(SCc3c(F)cccc3F)n2)cc1	0	2
O=C(Nc1cccnc1-c1cc(O)cc(CCC2CCCCN2)c1)C1CC1 (stereo not drawn)	5	0
COc1ccc(OC)c(-c2cccc(-c3cccc(NC(=O)c4ccc(Cl)cc4)c3)n2)c1	-2	1
CC1=C/C(=N/NC(=O)c2n[nH]c3c2CCCC3)CC1	7	6
COc1cccc(COC2CCCN(C(=O)c3ccccc3F)C2)c1 (stereo not drawn)	-8	-1
COc1ccccc1/C=C/CN1CCNC(C(=O)N2CCCC2)C1 (stereo not drawn)	8	6
COc1ccccc1C(=O)Nc1ccnn1CC(C)C	0	-2
CCN(C(=O)CS(=O)(=O)Cc1ncc(C)o1)c1ccccc1	8	6
Cn1c(SCCOc2ccc(S(N)(=O)=O)cc2)nc2sccc2c1=O	0	-2
O=C1NCCN(C/C=C/c2ccccc2)C1CC(=O)N1CCOCC1 (stereo not drawn)	5	3
CCSCCNC(=O)c1c(C)noc1-c1ccncc1	0	8
Cc1cccc(C2N3CC4([N+](=O)[O-])CN2CC([N+](=O)[O-])(C3)C4(C)C)c1 (stereo not drawn)	12	3
CC(C)C(NC(=O)c1cc2ccccn2n1)c1nnc2n1CCNCC2 (stereo not drawn)	5	4
CC(C)OCC(O)CN1CCCC1C(=O)N1CCSCC1 (stereo not drawn)	-1	-1
O=C(/C=C/c1ccccc1)N1CCN(c2ccc(-n3cccn3)nn2)CC1	-3	-13
CN1C(=O)C(=Cc2cccc(Cl)c2Cl)C(=O)N(C)C1=O	2	0
Cc1ccc(NC(=O)C2(C)CCN2C(=O)c2ccccc2)cc1C (stereo not drawn)	-2	-3
O=C(c1ccc(OC(F)F)cc1)N1CCOC(c2ccccc2)C1 (stereo not drawn)	7	7
Cc1ccc(NC(=O)CSc2nccn3nc(-c4ccccc4)cc23)cc1C	-1	-4
CCOC(=O)C1(Cc2ccccc2Cl)CCN(Cc2nc3ccccc3[nH]2)CC1	-6	-6
CC(c1cccc(O)c1)N(C)Cc1nccn1CC(F)(F)F (stereo not drawn)	9	8
New compounds follow:
SMILES	NPYLR7 ag	NPYLR7 ag max-min
CC(=O)N1CC[C@@]2(C1)[C@H](O)CN(C)S2(=O)=O	4	6
O=C(CCN1C(=O)CSC1c1ccccc1Cl)N1CCCC1 (stereo not drawn)	-1	7
CCOC(=O)c1c(NC(=O)c2cccs2)sc2c1Cc1ccccc1-2	3	3
C=CCSc1ncnc2sc3c(c12)CCCC3	2	-3
Cc1cccc(CNC(=O)Nc2nnc([C@H]3C[C@H](O)[C@@H](CO)O3)s2)c1	-2	-3
CCOC(=NC(=O)c1ccc(C)cc1)N(CCc1ccccc1)Cc1ccccc1	18	21
Cc1cccc(CN2CCN(c3cccc(F)c3)C(=O)C2C)c1 (stereo not drawn)	3	5
CNC(=O)[C@@H]1C[C@H](N)CN1Cc1ccc(CC(C)C)cc1	0	-8
CC(C)Cn1c(CN2CCN(C)CC2)nc2c1c(=O)n(C)c(=O)n2C	-1&4	-3&5
Cc1cc(NC(=O)CN2CCCC(C)C2)no1 (stereo not drawn)	9	12
COc1cccc(CC2(CO)CCCN(C/C=C/c3ccccc3OC)C2)c1 (stereo not drawn)	10	13
CCOC(=O)C(c1cccc(OC)c1)C1C=CC(NC(=O)/C=C/c2cccc(C(F)(F)F)c2)C1 (stereo not drawn)	2	0
CCc1nc2n(n1)C(=O)C(C(c1cccc(F)c1)N1CCCC(C)C1)S2 (stereo not drawn)	19	26
CCC(=O)Nc1cccc(OCC(=O)N(C)Cc2ncc(C)[nH]2)c1	12	10
COc1ccc(-c2noc(C3CCN(S(=O)(=O)c4ccccc4C)CC3)n2)cc1	26	21
Cc1ccnc(SCc2cc(=O)c(OC(=O)c3ccc(C)c(C)c3)co2)n1	-10	-8
CCC(=O)N1CCN(c2nccn2-c2ccccc2F)CC1	4	9
Cc1nnc(NC(=O)CSc2nc3ccccc3s2)s1	-3	-8
C=CCn1c(=NC(=O)c2ccc(Br)s2)sc2cc(S(C)(=O)=O)ccc21	4	-1
O=C(O)CCNS(=O)(=O)c1cccs1	3	1
O=C(Nc1ccc(F)c(Cl)c1)N1CCCCC1CCN1CCOCC1 (stereo not drawn)	14	8
Oc1cc(-c2cccc(Cl)c2)cc2c1OCCN(CCCc1cccnc1)C2	1	0
CCn1c2ccccc2c2cc(Nc3ccc(-c4cccc(N(C)C)c4)cn3)ccc21	19	6
COCCNC(=S)N=Nc1c(O)[nH]c2c(C)cc(C)cc12	2	5
CSCCC1NC(=S)N(Cc2ccccc2Cn2cncn2)C1=O (stereo not drawn)	0	6
The list goes on.
SMILES	NPYLR7 ag	NPYLR7 ag max-min
COCCNC(=O)[C@@H](C)C1CC[C@@]2(C)CC[C@H](NC(=O)C3CC3)[C@@H](C)[C@@H]2[C@H]1O (stereo partly drawn)	5	1
Cn1cccc1C(=O)N1C[C@@H](C(=O)O)C[C@@H](C(=O)N2CCCC2)C1	2	0
O=C(c1ccsc1)N1CCC(n2cnc3ccccc32)CC1	9	12
CC(Sc1ccccc1)C(=O)Nc1ccc2c(c1)OCO2 (stereo not drawn)	10	2
Cc1ccc(-c2cc(C(F)(F)C(F)F)[nH]n2)cc1	20	12
CCCCCCCOc1ccc(C=C2C(=O)NC(=O)N(C)C2=O)cc1	-1	20
O=C(c1cncc(N2Cc3cnn(CCO)c3C2)n1)N1CCCCC1	-3	-2
CCOC(=O)c1c(C)n(-c2ccccc2C)c2ccc(OC(=O)c3ccccc3)cc12	-8	-13
CCOCC(=O)Nc1scc2c(C(=O)OCC)nn(-c3ccc(Cl)cc3)c(=O)c12	12	5
CCc1nc2c(OCc3cc(Cl)cc(Cl)c3)cccn2c1N(C=O)Cc1ccc(OC)cc1	2	-2
O=C(CSc1nc2c(c(=O)n1CCc1ccccc1)SCC2)OCc1ccccc1	15	10
CCCCCCCC(=O)N1CCc2nc(Cc3cccc(C)c3)nc(N3CCOCC3)c2C1	-6	3
O=C(CCN1C(=O)NC2(CCCC2)C1=O)NC1=NCCS1	3	6
COc1ccc(-c2[nH]ncc2CNCC(C2CCOC2)N2CCCC2)cc1 (stereo not drawn)	4	0
C=CCN(Cc1ccccc1F)C(=O)Nc1ccccc1	6	4
CCn1c(C2CCN(C(=O)CN(C)Cc3ccccn3)CC2)nn(C)c1=O	-3	0
O=C(Cn1cnc([N+](=O)[O-])n1)N1CCc2ccccc2C1	-14	-20
CO[C@H]1[C@H](NC(=O)Cc2ccccc2)c2ccccc2C12CCN(C(=O)c1cccc(C)c1)CC2	18	4
CCN(CC)c1ccc(CN(C(=O)C(C)C)C(C)C)c(OS(=O)(=O)c2ccc(OC)cc2)c1	13	10
COc1ccc(OC)c(-c2ccc(=O)n(CCNC(=O)Nc3cccc(F)c3)n2)c1	-4	-1
CN(CC(=O)Nc1ccc(F)cc1)Cc1ccc(F)cc1	6	4
Fc1cnc(N2CC(c3cccnc3)C2)nc1N1CCCC1	0	-5
C1CCN(c2nc3nonc3nc2N2CCN(CC3CC3)CC2)C1	20	3
Nc1nnc(SCC(=O)Nc2nc3c(s2)CCCC3)s1	3	-1
O=C(NS(=O)(=O)CCCF)C1(c2ccccc2)CCC1	9	7

Complete entries as entered above. Order of values: NPYLR7 ag | NPYLR7 ag max-min
`Cc1cc(NC(=O)CN2CCCC(C)C2)no1` (stereo not drawn) across the screens: 9 | 12
`Cc1ccc(NC(=O)CSc2nccn3nc(-c4ccccc4)cc23)cc1C` across the screens: -1 | -4

New compounds follow:
SMILES	NPYLR7 ag	NPYLR7 ag max-min
COc1cccc(NC(=O)C(c2ccccc2)N2CCOCC2)c1 (stereo not drawn)	10	6
COc1ccc(S(=O)(=O)NCCCn2nc(-c3ccncc3)ccc2=O)cc1F	15	11
CC(C)CC(NC1=NCc2ccccc21)C(=O)O (stereo not drawn)	-5	-1
Cc1cc2c(c(=O)o1)C(c1cccc(O)c1)C(C#N)=C(N)O2 (stereo not drawn)	3	-1
O=C(Nc1ccccc1N1CCOCC1)c1cc2c(s1)CCCC2	5	3
CCCc1nnc(-c2cc3ccccc3n2CC(=O)Nc2cccc(C(F)(F)F)c2)o1	-6	-3
O=C(O)c1ccc([C@@H]2Nc3ccc(I)cc3[C@@H]3C=CC[C@@H]32)cc1	10	4
Cc1nc(CNC(=O)CC2C(=O)NCCN2Cc2cccs2)nc2c1CCCC2 (stereo not drawn)	4	5
CCC(C)n1c(COc2ccc(C(C)(C)C)cc2)n[nH]c1=S (stereo not drawn)	2	2
Cc1ccc(C2OCCCC2Nc2nn3c(=O)ccnc3s2)cc1 (stereo not drawn)	1	0
Cc1ccc(C)c(S(=O)(=O)N=C2C=C(Br)C(=O)c3ccccc32)c1	8	7
COc1ccccc1CCC(=O)NCc1cccnc1N(C)C	-1	0
CCCN(Cc1ccc(C(O)(C=C(C)C)C=C(C)C)o1)Cc1cccn1C	-9	-2
O=C(NCC(=O)N1CCN(c2ccccc2)CC1)c1ccc2c(c1)OCO2	1	1
Cc1ccc(-n2ncc(C(=O)NCC3CCCO3)c2C)cc1 (stereo not drawn)	32	31
Cc1csc(Sc2cc(=O)n3cc(Cl)ccc3n2)n1	-3	-6
CC1=C(C(=O)N2CCOCC2)C(c2ccc(Br)s2)NC(=O)N1C1CC1 (stereo not drawn)	-1	0
O=C(CSc1ccc(NC(=O)C2CC2)nn1)Nc1ccc(F)cc1	-3	-3
NC(=O)C1CCN(C2CC(=O)N(Cc3ccc4c(c3)OCO4)C2=O)CC1 (stereo not drawn)	-1	-3
Cc1ccc(C2SCC(=O)N2Cc2ccccc2)cc1 (stereo not drawn)	-11	-13
C(=NNc1ccc2ccccc2n1)c1ccc2c(c1)OCO2	-1	-4
Cc1cccc(C(=O)N(Cc2ccc(F)cc2)Cc2cc(N)ccc2N(C)C)c1	-3	4
COc1ccc(NS(=O)(=O)c2cc(C(=O)Nc3ccc(C)cc3)ccc2C)cc1	2	4
OC(c1ccc(F)c(F)c1)c1ncc(-c2cccc(C(F)(F)F)c2)[nH]1 (stereo not drawn)	5	2
O=C(O)c1ccc(N2C(=O)CC(N3CCN(c4ncccn4)CC3)C2=O)cc1 (stereo not drawn)	2	0
(listing goes on)
SMILES	NPYLR7 ag	NPYLR7 ag max-min
COc1ccc(OC)c(-c2cnc(-c3ccc(CNC(=O)c4ccc(C(F)(F)F)c(F)c4)cc3)[nH]2)c1	5	5
Cc1cccc(NC(=S)NC2CC3CCC2C3)n1 (stereo not drawn)	-2	-2
COc1cccc(C(CN2CCN(C(=O)NCc3ccccc3)CC2)OCc2ccc(C)cc2)c1 (stereo not drawn)	-3	0
CCOCCCn1c(SCCCC#N)nc2cc(S(=O)(=O)N3CCOCC3)ccc21	4	-1
O=C(Nc1ccc2c(c1)CCC2)N[C@@H](Cc1ccccc1)C(=O)N1CCC(C(=O)N2CCOCC2)CC1	31	21
CC(c1ccon1)N(C)Cc1cn(C)nc1-c1cccc(Cl)c1 (stereo not drawn)	-6	-8
COC(=O)C(C)(Cc1ccccc1)NC(=O)c1ccc(CSc2nnc3ccccn23)cc1 (stereo not drawn)	2	-1
COc1ccc(-c2nc3ccccn3c2NC(=O)Cc2ccc(F)cc2)cc1	-8	0
Cc1ccccc1Nc1nc(-c2cc3ccccc3oc2=O)cs1	-5	-7
O=S(=O)(c1ccccc1)N1c2ccccc2Sc2ccccc21	16	15
c1ccc(CN=C2CCc3ccccc3N2)cc1	6	1
NC(=O)NC(=O)COC(=O)c1ccc([N+](=O)[O-])s1	2	8
COc1cc2nc(Nc3nc(-c4ccccc4)c(C(C)=O)s3)sc2cc1OC	-7	2
CC[C@@H](C(=O)[C@@H](C)[C@@H](O)[C@H](C)[C@@H]1O[C@@H]([C@@H](CC)C(=O)O)CC[C@@H]1C)[C@H]1OC2(C=C[C@@H](O)[C@]3(CC[C@@](C)([C@H]4CC[C@](O)(CC)[C@H](C)O4)O3)O2)[C@H](C)C[C@@H]1C (stereo partly drawn)	-22&-3	-23&-9
Cc1cc2c(=O)n(Cc3ccco3)c(SCC(=O)N3CCc4ccccc4C3)nc2s1	3	3
CN1[C@@H]2CC(OC(=O)[C@H](CO)c3ccccc3)C[C@H]1[C@@H]1O[C@@H]12 (stereo partly drawn)	-13&-3	-18&-8

Of the compounds above, twelve contain a thiophene ring, fused or not:
SMILES	NPYLR7 ag	NPYLR7 ag max-min
Cn1c(SCCOc2ccc(S(N)(=O)=O)cc2)nc2sccc2c1=O	0	-2
CCOC(=O)c1c(NC(=O)c2cccs2)sc2c1Cc1ccccc1-2	3	3
C=CCSc1ncnc2sc3c(c12)CCCC3	2	-3
C=CCn1c(=NC(=O)c2ccc(Br)s2)sc2cc(S(C)(=O)=O)ccc21	4	-1
O=C(O)CCNS(=O)(=O)c1cccs1	3	1
O=C(c1ccsc1)N1CCC(n2cnc3ccccc32)CC1	9	12
CCOCC(=O)Nc1scc2c(C(=O)OCC)nn(-c3ccc(Cl)cc3)c(=O)c12	12	5
O=C(Nc1ccccc1N1CCOCC1)c1cc2c(s1)CCCC2	5	3
Cc1nc(CNC(=O)CC2C(=O)NCCN2Cc2cccs2)nc2c1CCCC2 (stereo not drawn)	4	5
CC1=C(C(=O)N2CCOCC2)C(c2ccc(Br)s2)NC(=O)N1C1CC1 (stereo not drawn)	-1	0
NC(=O)NC(=O)COC(=O)c1ccc([N+](=O)[O-])s1	2	8
Cc1cc2c(=O)n(Cc3ccco3)c(SCC(=O)N3CCc4ccccc4C3)nc2s1	3	3

Screening results (PubChem)

These rows are one share of the data (hit frequency here may not be typical).
